Screens: PubChem, National Center for Advancing Translational Sciences (NCATS)
miR-21 FLuc – raises the signal of a miR-21 reporter; HeLa miR-21 FLuc reporter, luciferase, 48 h; Potency, µM (series often up to 38.3 µM), for the others: at the top dose reporter change, positive = more light; 340,000 tested, under 10 active; active = well fitted rising curve with a large enough effect; inconclusive = small, poorly fitted or top-dose-only effect; inactive = no such curve, though single readings can be large or run the other way;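 note: % of control where 0% means no effect; miR-21 action dims this reporter so a rising signal means less miR-21 action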
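Using DMEM plus 10% FBS, HeLa miR-21-FLuc cells are incubated with test compounds (final up to about 40uM) for 48 hours; firefly luciferase signal is then imaged following reagent-mediated lysis.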
Rango-impB inh – prevents formation of the Rango-importin beta complex; AID 540263; Potency, µM (series often up to 92.2 µM), without a hit: at the top dose inhibition of complex formation; Rango CFP/YFP FRET sensor + importin beta, 45 min; hit rate 0.031% among 340,000; active = rising FRET ratio curve, often small or poorly fitted; inconclusive = mostly compound fluorescence or quenching in the first reads; inactive = flat curves in all reads;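 note: potency is the fitted concentration of half-maximal effect; 0% = DMSO wells and 100% = buffer wells lacking importin beta; nearly all actives have a fitted effect of over 15% in size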
Target sequence (Q14974 whole entry, looked up): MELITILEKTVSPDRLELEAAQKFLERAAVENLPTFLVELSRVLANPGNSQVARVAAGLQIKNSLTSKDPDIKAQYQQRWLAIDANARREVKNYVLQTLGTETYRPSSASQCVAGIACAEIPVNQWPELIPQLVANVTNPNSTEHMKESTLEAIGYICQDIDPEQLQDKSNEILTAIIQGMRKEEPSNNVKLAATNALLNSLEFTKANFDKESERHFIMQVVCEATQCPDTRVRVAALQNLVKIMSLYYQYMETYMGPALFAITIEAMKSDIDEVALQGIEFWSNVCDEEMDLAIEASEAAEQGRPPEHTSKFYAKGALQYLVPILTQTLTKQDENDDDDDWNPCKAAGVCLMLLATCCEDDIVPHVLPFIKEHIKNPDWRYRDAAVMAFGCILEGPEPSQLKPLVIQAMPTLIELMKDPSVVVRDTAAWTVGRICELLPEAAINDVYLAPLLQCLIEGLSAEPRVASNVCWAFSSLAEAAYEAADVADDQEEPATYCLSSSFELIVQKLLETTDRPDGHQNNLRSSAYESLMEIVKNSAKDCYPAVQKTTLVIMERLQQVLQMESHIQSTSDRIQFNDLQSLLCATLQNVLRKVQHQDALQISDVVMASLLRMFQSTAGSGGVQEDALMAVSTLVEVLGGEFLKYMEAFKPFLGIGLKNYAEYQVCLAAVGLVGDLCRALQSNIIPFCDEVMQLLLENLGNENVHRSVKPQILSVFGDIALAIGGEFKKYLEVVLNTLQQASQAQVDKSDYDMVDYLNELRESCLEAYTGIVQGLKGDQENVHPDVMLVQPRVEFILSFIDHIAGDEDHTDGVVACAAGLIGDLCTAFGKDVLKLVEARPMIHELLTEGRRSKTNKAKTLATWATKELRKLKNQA
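FRET biosensor (snurportin 1 IBB flanked by EYFP and cerulean), 50 nM, with compound 5 min, then 0.125 microM importin beta in PBS, 1 mM DTT, 0.02% Tween-20, 0.1% BSA. CFP/YFP ratio read after 45 min at room temperature; pre-read flags interference.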
Rango dissoc inh – inhibitors of RanGTP-induced Rango-importin beta complex dissociation; Biochemical FRET Rango-importin beta, RanGTP-induced dissociation; Potency, µM (top dose mostly 46.1 µM), for inactives: at the highest dose activity change, negative = inhibition; hit rate 0.071% among 340,000; AID 540253; active means falling FRET ratio curve, often poorly fitted, with flat reads before Ran was added; inconclusive means other falling curves, or compound fluorescence or quenching; inactive means flat or rising ratio curve;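 note: potency is the fitted concentration of half-maximal effect; % of control where 0% means no effect; nearly all actives have a fitted effect of over 45% in size; -100% = wells without RanGTP and RCC1; the record marks most hits as doubtful in a second field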
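Quantitative HTS using a FRET biosensor: 0.1 uM Rango, 0.25 uM importin beta, 0.6 uM Ran, 2 mM GTP, 0.2 uM RCC1 final, PBS with DTT, Tween-20 and BSA. Post-read taken 45 min after Ran addition.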
GLA inh pH 4.5 – inhibitors of human alpha-galactosidase A at pH 4.5; P06280; purified enzyme, 4-MU-alpha-Gal fluorescence, pH 4.5; activity change, negative = inhibition, % at 105 µM; 230,000 tested, under 10 active; inconclusive = small, poorly fitted or top-dose-only inhibition, or a rising curve; inactive = flat fitted curve, though single readings scatter; no compound was filed as active;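 note: 0% = full activity with enzyme and -100% = basal without enzyme; dose as in the result columns while the protocol names 77 µM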
Active calls of the source: *; ? = inconclusive; nt = not tested or not shown. This is a subset; rates above refer to the full screens.

miR-21 FLuc,GLA inh pH 4.5,Rango dissoc inh,Rango-impB inh,Molecule
-8%,5,-14%,-1.4%,O=C1NC2=C(CCc3ccccc32)C(c2ccc(Br)cc2)N1 (stereo unspecified)
-7%,-4,-9%,-1.8%,C=CCOc1ccc(C2NC(=S)NC(C)=C2C(=O)c2ccccc2)cc1OC (stereo unspecified)
5%,nt,-11%,0.1%,C/C(=C\c1ccc(F)cc1)C(=O)c1c(C)cc(C)[nH]c1=O
nt,nt,-2%,0.9%,CCOC(=O)c1nn(-c2ccc(F)cc2)c(=O)cc1OCC(=O)N1CCN(c2ccccc2)CC1
-3%,7,-11%,5.2%,Cc1cccc(OCC(=O)Nc2ccc(S(=O)(=O)Nc3cc(C)nc(C)n3)cc2)c1
-1%,nt,-8%,-3.5%,Cc1cccc(NC(=O)c2cccc(OC(=S)N3CCOCC3)c2)c1
2%,nt,13%,8.2%,COc1cccc(-c2cc(C(=O)Nc3cccnc3)c3ccccc3n2)c1
-2%,-5,-26%,0.0%,COc1ccc(C2N3CC4(C)CN2CC(C)(C3)C4=O)cc1OC (stereo unspecified)
-6%,10,1%,?,CC1=CC(c2ccccc2)n2nc(N3C(=O)C4CC=CCC4C3=O)nc2N1 (stereo unspecified)
1%,5,-16%,-3.1%,COc1cc(NC(=O)c2ccc3c(SCC(=O)O)c4c(nc3c2)CCCC4)cc(OC)c1OC
nt,nt,0%,0.6%,Cc1ccc(-n2nnnc2SCC(=O)c2c(N)n(C3CC3)c(=O)[nH]c2=O)c(C)c1
-18%,13,2%,1.9%,N#Cc1ccc(-n2c(-c3ccccc3)nnc2-c2ccccc2)cc1C#N

An excerpt of these results, bar-delimited:
Molecule | miR-21 FLuc | GLA inh pH 4.5 | Rango dissoc inh | Rango-impB inh
CCOC(=O)c1nn(-c2ccc(F)cc2)c(=O)cc1OCC(=O)N1CCN(c2ccccc2)CC1 | nt | nt | -2% | 0.9%
Cc1cccc(OCC(=O)Nc2ccc(S(=O)(=O)Nc3cc(C)nc(C)n3)cc2)c1 | -3% | 7 | -11% | 5.2%
Cc1cccc(NC(=O)c2cccc(OC(=S)N3CCOCC3)c2)c1 | -1% | nt | -8% | -3.5%
COc1cccc(-c2cc(C(=O)Nc3cccnc3)c3ccccc3n2)c1 | 2% | nt | 13% | 8.2%
COc1ccc(C2N3CC4(C)CN2CC(C)(C3)C4=O)cc1OC (stereo unspecified) | -2% | -5 | -26% | 0.0%
CC1=CC(c2ccccc2)n2nc(N3C(=O)C4CC=CCC4C3=O)nc2N1 (stereo unspecified) | -6% | 10 | 1% | ?
COc1cc(NC(=O)c2ccc3c(SCC(=O)O)c4c(nc3c2)CCCC4)cc(OC)c1OC | 1% | 5 | -16% | -3.1%

Carrying on:
miR-21 FLuc,GLA inh pH 4.5,Rango dissoc inh,Rango-impB inh,Molecule
0%,-1,25%,-1.0%,Cc1ccc(C(=O)OCc2c(C)noc2C)cc1NC(=O)c1ccco1
-3%,-19,-12%,-0.6%,O=C(C1CCCO1)N1CCC(O)(c2ccccc2)CC1 (stereo unspecified)
nt,nt,-11%,3.1%,COc1ccc(NC(=O)Cc2ccc(Cl)cc2)cc1S(=O)(=O)N1CCCCC1
-16%,0,-6%,0.4%,O=C(Nc1ccc2c(c1)OCO2)c1cc(C2CC2)on1
-1%,nt,0%,?,CCOc1ccc(C(=O)NCC(=O)NC(C)CCc2ccccc2)cc1OCC (stereo unspecified)
-5%,nt,29%,3.9%,CC1CCN(C(=O)c2ccccc2NC(=O)c2cccc(S(=O)(=O)N(C)C)c2)CC1
nt,nt,-1%,-0.2%,COc1ccc(C(CNC(=O)CCNS(=O)(=O)c2ccccc2C(F)(F)F)N2CCOCC2)cc1 (stereo unspecified)
nt,nt,9%,-10%,COc1ccc(COC(=O)c2ccc(S(=O)(=O)N3CCCCC3)cc2)cc1OC
0%,nt,-5%,5.5%,O=S(=O)(c1ccc(C(F)(F)F)cc1)N1CCN(CCc2ccccc2)CC1
-2%,2,2%,-0.9%,COc1ccccc1NC(=O)CN1C(=O)CCS(=O)(=O)c2ccccc21
-11%,-21,12%,3.2%,COc1cccc(N2CCN(C(=S)NCc3ccco3)CC2)c1
-2%,1,-8%,1.6%,Cc1ccc(-c2cc(C(F)F)nc(NCc3cccnc3)n2)cc1
nt,nt,-13%,-2.4%,Cc1nnc(SCC(=O)N(CC(C)C)C2CCS(=O)(=O)C2)n1N (stereo unspecified)
-8%,6,-24%,0.0%,Cc1cccc(NC(=S)NC(=O)/C=C/c2ccco2)c1
-1%,nt,-11%,-1.0%,O=C(N/N=C/c1ccccc1)C(=O)N/N=C/c1ccccc1
-3%,-2,-7%,5.4%,CCN(CC)S(=O)(=O)c1cc(NC(=O)COC(=O)c2sc3ccccc3c2Cl)ccc1C
-22%,7,3%,-0.3%,Cc1ccc(CNC(=O)CN(C)S(=O)(=O)c2cccs2)cc1
1%,5,?,-2.9%,COc1cccc(S(=O)(=O)N2CCN(C(=O)c3ccco3)CC2)c1
-1%,7,6%,3.6%,Cc1cccc(-n2cnc(C(=O)O)c2)n1
-1%,nt,0%,-1.4%,COCCOC1CCN(C(=O)C2CCC(=O)N(CCc3ccc(OC)cc3)C2)CC1 (stereo unspecified)
-4%,-2,-6%,1.2%,COc1cccc(NC(=O)C(NC2CCCC2)c2ccccc2)c1 (stereo unspecified)
-16%,-5,4%,-0.6%,O=C(Nc1nnc(-c2ccncc2)o1)c1ccccc1
-7%,3,-1%,-0.3%,Cc1sc2ncn3c(C)nnc3c2c1C
8%,4,6%,0.5%,Nn1c(SC/C=C/c2ccccc2)nnc1-c1cccnc1
4%,6,?,0.5%,CCC(=O)c1ccc(OCC(O)Cn2nc(C)c(C(C)=O)c2C)cc1 (stereo unspecified)
9%,5,-17%,-1.8%,O=c1cc(CSc2nnc(COc3cccc4ccccc34)o2)c2ccccc2[nH]1
nt,nt,-18%,0.4%,CC12CCC(=O)N1C(C(=O)NCCN1C(=O)S/C(=C\c3ccccc3F)C1=O)CS2 (stereo unspecified)
-2%,nt,-5%,4.4%,COc1ccc(N2C(=NC(=O)CC3CCCCC3)SC3CS(=O)(=O)CC32)cc1 (stereo unspecified)
-21%,-16,14%,0.7%,CN(C)C(=S)Nc1ccc2c(c1)OCCO2
-50%,0,-8%,-0.4%,Cc1noc(C(=O)Nc2ccc3c(c2)OCO3)c1Cl
-66%,6,6%,-3.2%,Cc1ccc(CONC(=O)c2ccccc2)cc1
-4%,nt,-22%,0.9%,O=C(Cc1ccc([N+](=O)[O-])cc1)OCc1c(F)cccc1Cl
nt,nt,26%,1.4%,CCCCOc1ccc(C(=O)NCC(=O)NC2CC2)cc1
-37%,-8,-12%,-0.6%,O=C(Nc1nnc(C2CC2)s1)c1ccco1
nt,nt,-12%,-2.6%,COCCCNC(=O)C[C@H]1C[C@H](C(=O)N2CCCCC2)[C@@]2(C)c3[nH]c4cc(-c5ccco5)ccc4c3CCN2C1=O
-54%,nt,1%,-0.6%,CCCCc1nc2cc(C(=O)N(C)C3CCOCC3)ccc2o1

Laid out differently: entries from further up
Under each structure – miR-21 FLuc, GLA inh pH 4.5, Rango dissoc inh, Rango-impB inh
> COc1ccc(N2C(=NC(=O)CC3CCCCC3)SC3CS(=O)(=O)CC32)cc1 (stereo unspecified)
    -2%, nt, -5%, 4.4%
> CN(C)C(=S)Nc1ccc2c(c1)OCCO2
    -21%, -16, 14%, 0.7%

Next part.
miR-21 FLuc,GLA inh pH 4.5,Rango dissoc inh,Rango-impB inh,Molecule
nt,nt,1%,4.4%,Cc1cc(NC(=O)COC(=O)c2ccccc2Cl)no1
-4%,9,7%,-5.6%,COc1ccc(-c2noc(CSc3nc(N)c(-c4ccccc4)c(=O)[nH]3)n2)cc1OC
-9%,-10,-3%,4.4%,O=S1(=O)N=C(Nc2ccc(O)c(CN3CCCCC3)c2)c2ccccc21
-10%,7,10%,-2.7%,O=C(Nc1ccccc1O)c1nc(Cl)ccc1Cl
-5%,nt,-6%,2.7%,COc1ccc(N2CCN(C(=O)c3ccc(N4CCCCS4(=O)=O)cc3)CC2)cc1
-6%,8,-3%,-0.5%,CC1(C)NC(=O)N(CC(O)CN2CCCCC2)C1=O (stereo unspecified)
-12%,0,-9%,2.8%,O=C(CSc1nc(-c2ccco2)cc(C(F)(F)F)n1)NCCCn1ccnc1
nt,nt,-5%,-4.9%,O=C1[C@H]2[C@H](C=CC[C@H]2C(=O)N2CCN(c3ccccc3)CC2)CCN1Cc1ccc(Cl)c(Cl)c1
-17%,nt,10%,2.8%,CC(=O)N1CCN(c2ccccc2NC(=O)c2cccc3c(Cl)cccc23)CC1
0%,-5,1%,-0.9%,CC(C)Oc1ccc(NC(N)=O)cc1
-8%,3,6%,0.7%,CC(=O)c1ccc(S(=O)(=O)Nc2ccc(C(=O)NCC(c3ccccc3)N(C)C)cc2)cc1 (stereo unspecified)
-57%,-3,-1%,-1.2%,CN(C)C(=O)c1cc(-c2ccccc2)no1
2%,-5,0%,-0.2%,O=S(=O)(Cc1ccccc1)Nn1cnnc1
-62%,14,?,?,COC1=C/C(=C/c2c(O)c(C#N)c3ccccn23)C=CC1=O
-3%,-8,7%,0.5%,COc1ccc(CNC(=O)C/C(C)=N/NC(=O)c2ccc([N+](=O)[O-])cc2Cl)cc1
-31%,-20,6%,0.1%,O=C(COc1ccc(F)cc1)c1c(O)cc(O)cc1O
nt,nt,-18%,-0.6%,CCN(CC(=O)Nc1ccc(NC(C)=O)cc1)C(=O)COc1ccccc1-c1ccccc1
nt,nt,-15%,3.9%,O=C(Nc1ccc(S(=O)(=O)N2CCOCC2)cc1)C1CCN(S(=O)(=O)c2ccc(F)cc2)CC1
-4%,-7,-7%,-0.1%,CC(/C=C/c1ccccc1)=N\NC(=O)CCc1ccccc1
-1%,-8,20%,-0.3%,S=c1[nH]nc(-c2ccco2)n1C1CCCCC1
0%,nt,1%,-0.7%,O=C(CN1CCC(NC(=O)c2ccco2)CC1)Nc1ccccc1C(F)(F)F
-2%,-28,22%,-2.7%,CCOC(=O)CNc1ncc(C(F)(F)F)cc1Cl
-8%,nt,-4%,1.4%,O=C(Nc1ccccc1F)c1oc2ccccc2c1NC(=O)C1CC1
-1%,6,16%,2.2%,Cc1ccc(C(=O)COC(=O)c2ccc3c(c2)C(=O)N(c2cccc4ncccc24)C3=O)cc1C
24%,5,-5%,-1.2%,CCCOc1ccc(CSC2=NCCN2)cc1[N+](=O)[O-]
9%,nt,34%,3.0%,CCOC(=O)C1CCN(C(=O)Cn2cnc3sc(C)c(S(=O)(=O)N4CCC(C)CC4)c3c2=O)CC1
-2%,nt,-10%,-1.1%,CC(=O)c1cccc(NC(=O)CN2CCN(Cc3ccccc3)CC2)c1
-63%,-10,?,?,COc1ccc(/C=C2\Cc3ccccc3C2=O)cc1OC
-14%,-12,5%,-3.0%,N#CCC(=O)N/N=C/c1cc([N+](=O)[O-])ccc1N1CCCC1
-29%,3,-1%,-0.6%,Clc1ccc2[nH]c3c(NCCCN4CCOCC4)ncnc3c2c1
-2%,-1,4%,-0.1%,O=C(O)Cn1c(P(=O)(O)c2ccccc2)nc2ccccc21
13%,-8,-2%,2.0%,COc1cc(O)c(C(CC(=O)N2CCOCC2)c2ccc3c(c2)OCO3)c(OC)c1 (stereo unspecified)
nt,nt,-5%,1.3%,COC(=O)C1=C(N)Oc2cc(C)n(Cc3ccncc3)c(=O)c2C1c1cccnc1 (stereo unspecified)
11%,nt,9%,0.9%,Cc1cc(Cl)cc(C)c1OCCCCCn1ccnc1
?,-4,23%,2.2%,Cc1onc(-c2ccccc2Cl)c1C(=O)O/N=C(\N)c1ccc([N+](=O)[O-])o1
0%,nt,7%,1.3%,CC(C(=O)O)n1nc(-c2ccccc2)c2ccccc21 (stereo unspecified)
-13%,3,-7%,1.4%,Cc1sc2ncnc(N3CCCC(C)C3)c2c1C (stereo unspecified)
-8%,9,1%,2.0%,c1ccc(CSc2ncccn2)cc1
-4%,-2,-12%,-0.1%,COc1ccc(Cl)cc1NC(=O)Cn1cccc1
nt,nt,-4%,-1.4%,Cc1[nH]c(=O)n(C(C)C)c(=O)c1Br
